Source: PubChem (several laboratories)
CBX7 AlphaScr = CBX7 inhibition, primary AlphaScreen. AlphaScreen His6-CBX7 / biotin-H3K27me3 peptide binding; hits give low values. normalised signal (fraction of DMSO) (test concentration not listed). 66,000 tested, 1.1% active. AID 1224903; in the data active = normalised signal below about 0.5;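 note: 100 nL library stock added to about 20 µL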
Target sequence (O95931 whole entry, looked up): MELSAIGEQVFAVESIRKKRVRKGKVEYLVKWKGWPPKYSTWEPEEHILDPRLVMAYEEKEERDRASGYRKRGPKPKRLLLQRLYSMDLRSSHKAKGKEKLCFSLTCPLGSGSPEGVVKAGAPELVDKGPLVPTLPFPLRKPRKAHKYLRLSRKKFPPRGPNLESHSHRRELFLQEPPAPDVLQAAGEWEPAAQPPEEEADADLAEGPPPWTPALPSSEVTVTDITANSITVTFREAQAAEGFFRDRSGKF
CBX7 AlphaScr z-score = second read-out of CBX7 AlphaScr, no call of its own (marks repeat the call); z-score; measured here: z-score of CBX7 signal; some inactives read as strong as hits; reference of the scale not given here;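 same signal on another scale; lower means less binding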
The depositor's hits bear a star. Only part of the results is shown; rates above refer to the full screens.

Each structure is followed by: CBX7 AlphaScr | CBX7 AlphaScr z-score
CC1CCCCN1S(=O)(=O)c1ccc2[nH]c(=O)cc(C(=O)NCCCN3CCCCCC3)c2c1 (configuration not stated)
  1 | 0.4
Cc1ccc2c(c1)C(c1ccc(Br)cc1)=NNC(c1ccccc1)=N2
  0.97 | -0.66
CCCCOc1ccc(C(=O)Nc2c3c(nn2-c2ccc(C)cc2C)CSC3)cc1
  1.1 | 0.072
Fc1ccccc1N1CCN(c2nc3ccccc3nc2C(F)(F)F)CC1
  1.2 | 6.6
Cc1nc(N2CCCCC2C)c2c(C)c(C(=O)Nc3c(F)cccc3F)sc2n1 (configuration not stated)
  1 | 1.4
C=CCn1c(Cc2c[nH]c3ccccc23)nnc1SCC(=O)Nc1ccc(OC)cc1
  0.97 | -0.83
Cc1cc(N(C)C)c(C#N)c(NCc2ccccc2)n1
  1.2 | 3.3
CCC(C(=O)NC1CCCCC1)n1c(C(=O)OC)cc2sc(Cl)cc21 (configuration not stated)
  1 | -0.13
Cc1cccc(NC(=O)c2cc3c(n(-c4ccc(Cl)cc4)c2=O)CC(C)(C)CC3=O)n1
  1 | 1.3
Cc1ccc(Cl)cc1NC1c2ccccc2C(=O)N1Cc1ccccc1 (configuration not stated)
  1.1 | 2.3
Cc1ccc(S(=O)(=O)Nc2cc(Br)c3oc4c(c3c2)C(=O)CCC4)c(C)c1
  0.98 | -0.53
CC1CCN(C(=O)c2n[nH]c(=O)c3ccccc23)CC1
  1.1 | 0.74
COc1ccc(CNC(=O)c2cnc3sccn3c2=O)cc1
  0.89 | -1.3
CCn1cc(C(=O)N(C)c2cc(Cl)c(OC)cc2OC)c2cc(OC)c(OC)cc2c1=O
  1.1 | 0.79
CCN1CCN(c2nc3ccccc3nc2NS(=O)(=O)c2ccccc2)CC1
  0.99 | -0.26
Cc1ccccc1OCC(=O)Nc1ccc2oc(-c3ccncc3)nc2c1
  1.1 | 3.2
COCCNC(=O)c1cnn2c1NC(c1ccc(F)cc1)CC2C(F)(F)F (configuration not stated)
  1.2 | 2.3
Cc1ccc(Nc2nc3ccccc3nc2NS(=O)(=O)c2ccccc2)cc1C
  0.84 | -4.5
COc1ccc(OCC(O)CN2CCC(C)CC2)cc1 (configuration not stated)
  1 | 0.4
CCC12CC3CC(O)(CC(O)(C3)C1)C2
  0.92 | -0.89
Cc1ccc(C)c(NC(=O)c2c(-c3ccccc3Cl)noc2C)c1
  0.99 | -0.61
CCc1ccc(NC(=O)c2cccc(NC3=NC4CS(=O)(=O)CC4S3)c2)cc1 (configuration not stated)
  0.93 | -0.75
O=C(NCc1ccccc1)c1ccc2c(c1)N(Cc1ccccc1)C(=O)c1ccccc1S2
  0.79 | -1.9
COC(CNC(=O)CCc1c(C)nc2cc(-c3ccccc3)nn2c1C)OC
  1 | 1.1
Cc1ccc2oc(-c3cc(NC(=O)c4ccc(F)cc4)ccc3Cl)nc2c1
  0.9 | -0.22
COc1ccc(Nc2nc(-c3ccccc3)c(CC(=O)O)s2)cc1
  0.99 | -0.21
CN(CCCNS(=O)(=O)c1ccc2c(c1)n(C)c(=O)c(=O)n2C)Cc1ccccc1
  1 | -0.004
Cc1ccc(C)c2[nH]c(=O)c(CCNS(=O)(=O)c3ccc(Cl)cc3)cc12
  1.1 | 0.69
CN(CC(=O)Nc1cccc(F)c1)S(=O)(=O)c1ccc2c(c1)n(C)c(=O)c(=O)n2C
  1.1 | 1.3
CCCOc1ccc(C(=O)C(CN2CCCC2)c2ccccc2)cc1 (configuration not stated)
  0.98 | -0.32
Cc1ccc(-c2nc(C(=O)Nc3c(C)cccc3C)c(C)o2)cc1
  0.94 | -0.78
CCOc1ccc(C(O)(CCN2CCCCC2)C2CCCCC2)cc1 (configuration not stated)
  1.1 | 0.18
Cc1ccc(NC2c3ncccc3C(=O)N2Cc2ccc(F)cc2)cc1C (configuration not stated)
  0.79 | -2.7
COc1ccc(NC(=O)CCc2nc(-c3cccs3)no2)cc1OC
  0.94 | -1.8
COc1ccccc1C(=O)N1CC(=O)Nc2ccc(Cl)cc2C1c1ccc(F)cc1 (configuration not stated)
  1.1 | 0.88
CCCCCCOc1ccc(N2C(=O)CC(N3CCN(C(c4ccccc4)c4ccccc4)CC3)C2=O)cc1 (configuration not stated)
  1.1 | 2
Cc1cc(NC(=O)c2cc(-c3ccc(Cl)cc3)on2)nn1Cc1ccc(Cl)cc1
  0.97 | -0.55
O=C(CCCCSc1nc2ccccc2[nH]1)Nc1cccc2ccccc12
  1 | 0.17
COc1ccc(-c2nc(CN3CCCC(C(=O)NC4CCCCC4C)C3)c(C)o2)cc1 (configuration not stated)
  1 | 0.1
CC(C)c1nnc(NC(=O)Cc2ccccc2)s1
  0.84 | -0.66
CN(CCNC(=O)Cn1ncc2c1-c1ccccc1OC2)Cc1ccccc1
  0.88 | -3.5
CC(C)OCCCNC(=O)c1ccc2c(=O)n3c(nc2c1)CCCCC3
  0.91 | -1.5
Nc1nonc1C(=O)NCCCNC(=O)c1cc(F)c(F)cc1Cl
  1 | 0.12
CN(CC(=O)NCCc1ccccc1)S(=O)(=O)c1cnc[nH]1
  1.3 | 2.2
Cc1nc2c(C(=O)NC3CC3)cnn2c(C)c1Cc1ccc(F)cc1
  0.96 | -0.95
Cn1c(-c2cc3ccc(O)c(CN4CCCCC4)c3oc2=O)nc2ccccc21
  1.1 | 2.4
Cc1sc2ncn(CC(=O)NCCCN3CCCC3)c(=O)c2c1S(=O)(=O)N1CCC(C)CC1
  1.1 | 0.53
CCN1CCN(Cc2ccc(NC(=O)CC3Oc4ccc(C)cc4NC3=O)cc2)CC1 (configuration not stated)
  1 | 0.34
CC(C)NC(=O)CCn1nc(-c2ccc(Cl)cc2)c2ccccc2c1=O
  1 | 0.51
COc1ccc(CNCC(CO)C2(Cc3ccccc3)CCOC(C)(C)C2)cc1 (configuration not stated)
  1 | -0.017
CCOc1cc2c(cc1OC)C(c1ccc3c(c1)OCO3)NCC2 (configuration not stated)
  1 | 0.45
COc1ccccc1NC(=O)c1c(O)c2ccccc2n(C)c1=O
  0.89 | -1.1
CCN(CC)C(=O)CN1C(=O)CCSc2ccccc21
  1.1 | 1.1
COCCNC(=O)c1ccc2c(c1)N(Cc1ccccc1)CCS2
  0.84 | -0.21
COc1ccc(OC)c(NC(=O)c2cc(-c3cccs3)nc3ccccc23)c1
  0.95 | -2.3
CCCn1c(COc2ccc(Cl)cc2)nc2ccccc21
  1.2 | 1.8
CCOC(=O)c1[nH]c2c(c1C)C(=O)CC(c1ccccc1)C2 (configuration not stated)
  1 | 0.3
CCOC(=O)N1CCC(NC(=O)c2cc3sc(Cl)cc3n2CC)CC1
  1 | 1.2
CCC1=Nc2cc(C(=O)NCCN(C)C)ccc2Sc2ccc(C)cc21
  0.85 | -2.1
CN(CC(=O)Nc1cccc(F)c1)S(=O)(=O)c1cccc2cccnc12
  0.84 | -1.9

New compounds follow
Each structure is followed by: CBX7 AlphaScr | CBX7 AlphaScr z-score
O=C(c1cnn(-c2ccccc2)c1-n1cccc1)N1CCCC1
  1 | 1.4
CC(C)c1ccc(NC(=O)CN(C)S(=O)(=O)c2cnc[nH]2)cc1
  0.98 | -0.13
COc1cccc(-c2nn(C)c3sc(C(=O)NCCC4=CCCCC4)cc23)c1
  1 | 0.18
CC(C)(C)c1ccc(C(=O)Nc2ccc(-c3nc4ccccc4o3)cc2)cc1
  1 | 0.24
O=C(CSc1nnc(CNC(=O)c2ccccc2F)o1)NC1CCCCC1
  0.89 | -1.8
CC1(C)CC(=O)C2=C(C1)NC(=O)CC2c1cc2c(cc1Br)OCO2 (configuration not stated)
  1.1 | 1.2
CN(Cc1ccccc1)C(=O)C1CCN(c2nnc(-n3cccc3)s2)CC1
  1.1 | 1.1
CCOC(=O)N1CCN(c2c(NCCC3=CCCCC3)c(=O)c2=O)CC1
  0.88 | -3.5
CNCCC(=O)N1c2ccccc2CCc2ccc(NC(=O)OC)cc21
  0.83 | -2
Cc1ccc2cc(CCNC(=O)COc3ccc4ccccc4c3)c(=O)[nH]c2c1
  1 | 0.28
CCN(CC)CCCn1c(-c2ccc(C)cc2)cn2c3ccccc3nc12
  0.79 | -3.3
COc1ccc(C(=O)CSc2ncc(-c3ccccc3)[nH]2)cc1
  0.98 | -0.97
Cc1ccn2c(Nc3ccc4c(c3)OCO4)c(-c3ccc(N(C)C)cc3)nc2c1
  0.8 | -3.3
Cc1ccc(S(=O)(=O)Nc2ccc3oc4c(c3c2)CC(C(C)(C)C)CC4)cc1 (configuration not stated)
  0.73 | -7.7
Cc1cc(NC(=O)c2cc(-c3ccc(F)cc3)on2)no1
  1 | 1.4

Two entries from above in a different format:
compound,CBX7 AlphaScr,CBX7 AlphaScr z-score
Cc1ccn2c(Nc3ccc4c(c3)OCO4)c(-c3ccc(N(C)C)cc3)nc2c1,0.8,-3.3
Cc1ccc2cc(CCNC(=O)COc3ccc4ccccc4c3)c(=O)[nH]c2c1,1,0.28

(cont.)
Each structure is followed by: CBX7 AlphaScr | CBX7 AlphaScr z-score
O=C(CCN1C(=O)COc2ccccc21)N1CCCCC1
  1.1 | 0.87
COc1ccccc1-c1cc2nc(C)c(CCC(=O)Nc3ccc(C)cc3)c(C)n2n1
  1 | 1.5
CCC1Oc2ccccc2N(CC(=O)NCCN2CCCC2)C1=O (configuration not stated)
  1 | 1.5
Cc1ccc2c(c1)N(CCCC(=O)NCc1ccccn1)C(=O)CO2
  1.3 | 0.7
CCCN(CCC)C(=O)c1c[nH]c2ccc(S(=O)(=O)Nc3ccc(CC)cc3)cc2c1=O
  1.4 | 1.6
O=C1CN(C(=O)Cc2ccc(F)cc2)C(c2ccccc2)c2cc(Br)ccc2N1 (configuration not stated)
  0.7 | -2.9
CC(C(=O)NC1CCCC1)N1C(=O)CC(C)(C)Sc2ccccc21 (configuration not stated)
  1 | 0.57
Cc1nc2cc(NCc3ccccc3O)ccc2n1Cc1ccccc1
  0.99 | -0.18
CCOc1ccc(N(C)S(=O)(=O)c2ccc3[nH]cc(C(=O)NCC4CCCO4)c(=O)c3c2)cc1 (configuration not stated)
  0.95 | -0.74
CCC1CCCCN1C(=O)c1c[nH]c2ccc(S(=O)(=O)N(C)c3ccc(C(C)C)cc3)cc2c1=O (configuration not stated)
  1.2 | 2.1
COc1ccc(C2C(=O)N(C3CCCCC3)CC(=O)N2Cc2ccc(F)cc2)cc1OC (configuration not stated)
  1 | 0.046
CCOc1ccc(N2C(=O)c3cccnc3C2Nc2ccc(Br)cc2)cc1 (configuration not stated)
  0.81 | -5.2
COc1cc(OC)cc(-n2nc(C(=O)Nc3ccc(C)cc3Br)c3ccccc3c2=O)c1
  1 | -0.011
COc1ccc(Br)cc1CNC(=O)CCc1cn(C)c2ccccc12
  1 | 0.22
CCOc1ccc(N2C(=O)CC(NCCCN3CCN(CC)CC3)C2=O)cc1 (configuration not stated)
  1.1 | 3

14 neighbouring entries out of the list so far, quoted:
Each structure is followed by: CBX7 AlphaScr | CBX7 AlphaScr z-score
CC1CCCCN1S(=O)(=O)c1ccc2[nH]c(=O)cc(C(=O)NCCCN3CCCCCC3)c2c1 (configuration not stated)
  1 | 0.4
Cc1ccc2c(c1)C(c1ccc(Br)cc1)=NNC(c1ccccc1)=N2
  0.97 | -0.66
CCCCOc1ccc(C(=O)Nc2c3c(nn2-c2ccc(C)cc2C)CSC3)cc1
  1.1 | 0.072
Fc1ccccc1N1CCN(c2nc3ccccc3nc2C(F)(F)F)CC1
  1.2 | 6.6
Cc1nc(N2CCCCC2C)c2c(C)c(C(=O)Nc3c(F)cccc3F)sc2n1 (configuration not stated)
  1 | 1.4
C=CCn1c(Cc2c[nH]c3ccccc23)nnc1SCC(=O)Nc1ccc(OC)cc1
  0.97 | -0.83
Cc1cc(N(C)C)c(C#N)c(NCc2ccccc2)n1
  1.2 | 3.3
CCC(C(=O)NC1CCCCC1)n1c(C(=O)OC)cc2sc(Cl)cc21 (configuration not stated)
  1 | -0.13
Cc1cccc(NC(=O)c2cc3c(n(-c4ccc(Cl)cc4)c2=O)CC(C)(C)CC3=O)n1
  1 | 1.3
Cc1ccc(Cl)cc1NC1c2ccccc2C(=O)N1Cc1ccccc1 (configuration not stated)
  1.1 | 2.3
Cc1ccc(S(=O)(=O)Nc2cc(Br)c3oc4c(c3c2)C(=O)CCC4)c(C)c1
  0.98 | -0.53
CC1CCN(C(=O)c2n[nH]c(=O)c3ccccc23)CC1
  1.1 | 0.74
COc1ccc(CNC(=O)c2cnc3sccn3c2=O)cc1
  0.89 | -1.3
CCn1cc(C(=O)N(C)c2cc(Cl)c(OC)cc2OC)c2cc(OC)c(OC)cc2c1=O
  1.1 | 0.79

The results go on:
Each structure is followed by: CBX7 AlphaScr | CBX7 AlphaScr z-score
COc1ccc(CCNC(=O)c2ccc3c(c2)N=C(C)c2c(C)ccc(C)c2S3)cc1OC
  1 | 0.53
Cc1cccnc1NC(=O)COc1ccc2oc3c(c2c1)CCCC3
  1.2 | 2.7
CCCCN(C)CCNC(=O)c1ccc2c(c1)NC(=O)CN2C
  1 | 0.016
COc1ccc(C(=O)c2cn(Cc3ccccc3)c3ccccc3c2=O)cc1
  0.76 | -0.85
NC(=O)c1oc2ccccc2c1NC(=O)c1cccc(Oc2ccccc2)c1
  0.97 | -0.15
CC1=Nc2cc(C(=O)NC3CCCCC3)ccc2Sc2ccc(Cl)cc21
  0.96 | -0.38
CCOc1ccc(CCNC(=O)C2CCCN(c3nn4c(=O)cc(C)nc4s3)C2)cc1 (configuration not stated)
  0.95 | -0.41
COc1ccc(CCNC(=O)c2cn(C3CCCC3)c(=O)c3c2c2ccccc2n3C)cc1OC
  0.88 | -0.12
COc1ccc(OC)c(Nc2cc(C(=O)NC(C)c3ccccc3)c3ccccc3n2)c1 (configuration not stated)
  0.97 | -0.44
Cc1cc(C)cc(NC(=O)Cc2ccc(NC3=NC4CS(=O)(=O)CC4S3)cc2)c1 (configuration not stated)
  0.79 | -2.2
